# Bioassay records deposited in PubChem by Fisher Drug Discovery Resource Center.
# NPYLR7 agonist: mosquito NPYLR7 agonism | HEK293T NPYLR7/Galpha15, GCaMP6s calcium fluorescence | 0.15% of 270,000 active | AID 1259423 | activation, % at 10 µM; in the data active = activation above about 40%;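 also: 0% = vehicle and 100% = reference agonist at the receptor; some compounds past the cut are filed as inactive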
# NPYLR7 agonist max-min: second read-out of NPYLR7 agonist, no call of its own (marks repeat the call); activation, %; measured here: Max-Min RFU normalised activation; some inactives read as strong as hits;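 span of the calcium signal over five minutes; 0% = vehicle and 100% = native peptide agonist; compound fluorescence can raise it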
# * hit, by the source's call; & = joins results of further samples. A portion of the library. The share of hits here may be higher or lower than overall.
# The opening 6 entries as a preview:
SMILES,NPYLR7 agonist,NPYLR7 agonist max-min
C/C=C/Cn1c(SCC(C)C)nc2c1c(=O)[nH]c(=O)n2C,0.1,6.2
COc1ccc(C(=O)Cn2nc(C3CCCN(S(C)(=O)=O)C3)n(C)c2=O)cc1 (stereo not given),-4.2,3.1
CCc1ccccc1NC(=O)c1c(NC(=O)c2ccccc2Cl)sc2c1CCCC2,1.1,3.9
CCS(=O)(=O)c1ccc(-c2ccc(NS(=O)(=O)c3ccc(C)c(C)c3)cc2)nn1,6.1,0.2
CCOC(=O)C(C(C)=O)=P(c1ccccc1)(c1ccccc1)c1ccccc1,-12.8,-18.3
Nc1ccnc2cc(OC(F)(F)F)ccc12,1.3,0.8

# This part in full, repeating the preview:
SMILES,NPYLR7 agonist,NPYLR7 agonist max-min
C/C=C/Cn1c(SCC(C)C)nc2c1c(=O)[nH]c(=O)n2C,0.1,6.2
COc1ccc(C(=O)Cn2nc(C3CCCN(S(C)(=O)=O)C3)n(C)c2=O)cc1 (stereo not given),-4.2,3.1
CCc1ccccc1NC(=O)c1c(NC(=O)c2ccccc2Cl)sc2c1CCCC2,1.1,3.9
CCS(=O)(=O)c1ccc(-c2ccc(NS(=O)(=O)c3ccc(C)c(C)c3)cc2)nn1,6.1,0.2
CCOC(=O)C(C(C)=O)=P(c1ccccc1)(c1ccccc1)c1ccccc1,-12.8,-18.3
Nc1ccnc2cc(OC(F)(F)F)ccc12,1.3,0.8
COc1cccc(Cc2nsc(N3CCC(CNC(=O)/C=C/c4ccc([N+](=O)[O-])cc4)CC3)n2)c1,10.4,15.5
COc1cccc(-c2nc3ccc(Cl)cn3c2NC(C)(C)CC(C)(C)C)c1,-5.5,-4.0
COc1ccc(/C=C/C(=O)c2cc(O)ccc2O)cc1,-6.3,-8.8
Cc1ccc2c(c1)N(Cc1ccc(Cl)cc1)C(=O)C(C)S2 (stereo not given),5.9,3.6

# 3 entries already listed, ordered by length of the SMILES, falling:
SMILES,NPYLR7 agonist,NPYLR7 agonist max-min
COc1cccc(Cc2nsc(N3CCC(CNC(=O)/C=C/c4ccc([N+](=O)[O-])cc4)CC3)n2)c1,10.4,15.5
COc1ccc(C(=O)Cn2nc(C3CCCN(S(C)(=O)=O)C3)n(C)c2=O)cc1 (stereo not given),-4.2,3.1
COc1ccc(/C=C/C(=O)c2cc(O)ccc2O)cc1,-6.3,-8.8

# Continuation.
SMILES,NPYLR7 agonist,NPYLR7 agonist max-min
COc1cc(Cl)cc([C@@H]2C[C@H]3CN(Cc4cccnc4)C(=O)[C@]34CCCN24)c1OC,17.6,0.2
COc1ccc(Cl)cc1NC(=O)CCC1CCCN(C(=O)Cn2nc(C)cc2C)C1 (stereo not given),-1.2,-3.1
CCCN(CC(=O)Nc1ccc(F)c(F)c1F)Cc1ncc(Cl)n1C,4.6,3.6
CC(c1ccc(-c2nccn2CCCO)cc1)N(C)C (stereo not given),-3.5,-11.0
O=C(c1ccno1)N1CCN(c2nc3c(F)cccc3s2)CC1,-4.6,-10.3
Cn1c(SCC(=O)c2ccc(F)cc2F)nnc1-c1ccccc1F,3.5,0.2
CCc1ccc(-c2ccc3nnc(SCC(N)=O)n3n2)cc1,-13.5,-10.5
Cc1cc(Cl)ccc1C(O)c1ncc(-c2cccc(F)c2)[nH]1 (stereo not given),1.2,0.0
Cc1ccccc1C1c2ccsc2CCN1C(=O)CN(CC1CCCO1)C(=O)COCc1ccccc1 (stereo not given),0.9,-1.6
CC(Oc1ccc(CN2CCN(C)C3(CCN(C)CC3)C2)cc1)C(=O)O (stereo not given),-19.8,-19.2

# Compound profiles (already shown).
# CCCN(CC(=O)Nc1ccc(F)c(F)c1F)Cc1ncc(Cl)n1C across the screens: NPYLR7 agonist = 4.6; NPYLR7 agonist max-min = 3.6
# COc1ccc(Cl)cc1NC(=O)CCC1CCCN(C(=O)Cn2nc(C)cc2C)C1 (stereo not given) across the screens: NPYLR7 agonist = -1.2; NPYLR7 agonist max-min = -3.1

# (next part)
SMILES,NPYLR7 agonist,NPYLR7 agonist max-min
Fc1ccc(C2=Nc3ncnn3C(c3ccccc3F)C2)cc1 (stereo not given),26.6,15.7
CCOC(=O)c1cc(-c2ccc(N3CCN(C(=O)[C@@H]4C[C@H]4c4ccccc4)CC3)cc2)n(-c2cccc(F)c2)n1,25.2,10.9
CN1C2CCC1CN(C(=O)Nc1ccc3c(c1)CCCC(=O)N3)CC2 (stereo not given),-3.0,-2.8
COC(C)(C)C(=O)N1CCC(CO)(CCCc2ccccc2)CC1,1.0,1.3
COCCCN(Cc1ccncc1)C(=O)c1sccc1C,7.1,5.6
COc1ccc(N2C(=O)/C(=C\c3cccc(F)c3)SC2=S)cc1,-4.5,-13.1
Oc1cccc(Nc2nccc3[nH]c(-c4ccsc4)cc23)c1,2.2,-3.9
CSc1ccc(C(=O)CCC(=O)NC2CCC(C)CC2)cc1 (stereo not given),-8.1,-11.7
CC(C)n1cc(C(=O)N2CCN(C(=O)c3cccs3)CC2)c2nn(-c3ccccc3)c(=O)c-2c1,-7.2,-12.6
CSc1ccc(-c2nc(Cn3ccnc3)c(C)o2)cc1,2.7,1.8
O=C1CC(N2CCCC2)C(=O)N1c1ccc(F)cc1 (stereo not given),-1.6,-3.6
O=C1Nc2ccc(S(=O)(=O)O)cc2C1=O,4.5,2.1
CC1=C(NC(=O)c2ccccc2)C(c2c[nH]c3ccccc23)n2ncnc2N1 (stereo not given),0.0,-4.6
Cc1ccc(CNC(=O)CSc2nc(=O)n(CCO)c3c2CCCC3)cc1,-6.7,-14.8
Cc1cnc(-n2cnnc2)c(-c2cc3ccccc3o2)c1,21.3,12.6
Cc1ccc2nc(-c3ccc(C(F)(F)F)cc3)c(NC(C)(C)CC(C)(C)C)n2c1,-4.1,3.9
COCCCN(CC(=O)N(Cc1ccccc1)Cc1ccco1)S(=O)(=O)c1ccc([N+](=O)[O-])cc1,-2.7,-6.4
COc1ccc(OCCSc2nc3ccccc3[nH]2)cc1,-1.9,-4.8
COc1ccc(CCN2CC3=C(C2=O)C(c2ccc(C)cc2C)NC(=O)N3C)cc1OC (stereo not given),-7.0,-7.5
O=C(CCCCCCC(=O)Nc1cccnc1)NO,6.2,-3.7
Cn1cc(C(=O)Nc2nccs2)c2nn(-c3ccccc3)c(=O)c-2c1,13.5,10.6
Cc1nc2c(C)cccn2c(=O)c1NC(=O)C1CCCC1,5.8,1.7
O=C(Cn1nnnc1CN1CCCC1)N1CCN(C/C=C/c2ccccc2)CC1,-1.3,-3.4
COc1ccc(Nc2cc3sc4cc(C)ccc4[nH]c3c3c(=O)c4ccccc4c(=O)c23)cc1,-2.4,2.5
CCOC(=O)CN1C(=O)CN(C(=O)NC(=O)OCC)CCC(OC)c2ccccc21 (stereo not given),2.8,4.5
COc1ccc(-c2nn3c(C)cc(C)nc3c2C)cc1OC,2.4,28.5
CC(C)c1nc(NC(=O)c2[nH]ncc2Br)n(C)n1,84.9*,71.2*
O=c1ccn(Cc2nnc(SC/C(=N\O)c3ccccc3Cl)o2)c(=O)[nH]1,-1.6,5.2
Cc1ccc(-c2cc(C(N)=O)ccn2)c(-n2nc(C)cc2C)c1,2.5,1.0
COc1cc(OC)cc(C2=NC3(CCCCC3)NC2=S)c1,-4.2,-4.7
C=CCNC(=O)c1ccccc1NC(=O)CN(c1cccc(Cl)c1)S(C)(=O)=O,6.3,5.3
COc1ccc(N(C)S(=O)(=O)c2ccc(OC)c(N3CCN(C(=O)c4cc5ccccc5s4)CC3)c2)cc1,0.7,-2.3
COc1ccc(-n2cnn(CN3CCN(c4cccc(C)c4C)CC3)c2=S)cc1,-2.7,-3.4
CCc1nc2c(OCC(=O)c3ccc(F)cc3)cccn2c1N(C)C(=O)COc1ccccc1,-1.9,-0.3
CCc1ccccc1SCc1csc(Cc2ccc(C)cc2)n1,1.3,-1.1
COc1ccc(CN(Cc2ccco2)Cc2ccc(C(O)(c3cccc(F)c3)c3cccc(F)c3)o2)cc1OC,2.2,-1.3
NC(=O)CSc1ccc(NC(=O)c2ccccc2F)nn1,1.2,-6.9
Cn1c(=O)c2c(-c3ccccc3)n(C3CCCCC3)cc2n(C)c1=O,-10.0,-17.3
CCOc1nn(CC)cc1-c1nnc(SCC(=O)NC(C)(C)C)n1C,8.5,8.1
CC(OC(=O)Cn1cnc2c1c(=O)n(C)c(=O)n2C)C(=O)Nc1ccc(F)cc1 (stereo not given),6.3,0.4
Cc1ccc(Cl)c(C(=O)N2CCC(n3c(Cc4ccccc4)nc4ccccc43)CC2)c1,2.3,4.1
COc1ccccc1Nc1nc2sc(C(=O)N3CC(C)OC(C)C3)cc2s1 (stereo not given),-2.5,-3.5
O=C(O)CCC(=O)OC[C@@H](NC(=O)C(Cl)Cl)[C@H](O)c1ccc([N+](=O)[O-])cc1,-5.4&13.7,-9.5&6.2
COc1ccc(C(C2Sc3nc(C)nn3C2=O)N2CCC(C)CC2)cc1 (stereo not given),1.7,-1.8
COc1ccc(O)c(CN2CCOCC(CN(C)C)C2)c1 (stereo not given),8.2,2.0
Cc1cc(C)cc(C(=O)N(C)C2(C)CCS(=O)(=O)C2)c1 (stereo not given),16.3,11.4
CC1=CC[C@@H]2CN(C(=O)c3ccc(-c4ccn[nH]4)cc3)C[C@@H]2C1,2.9,-1.3
COc1ccc(NC(=O)Cn2c(=O)n(-c3ccc(Cl)c(Cl)c3)c(=O)c3ccccc32)cc1,4.8,20.8
Cc1cc(N2CCN(C)CC2)nc2ccc(NC(=O)Nc3cccs3)cc12,-2.6,-3.0
O=C1CCCN1CCC1CCN(Cc2cnn3cccnc23)CC1,1.1,1.1

# Next section
SMILES,NPYLR7 agonist,NPYLR7 agonist max-min
O=c1[nH]c2cc3ccccc3c(=O)n2c2sc3c(c12)CCCC3,6.7,15.1
C#CCOCC(O)CN(Cc1ccco1)Cc1ccc(C)s1 (stereo not given),17.4,26.8
COc1ccc(C(=O)Nc2ccccc2)cc1S(=O)(=O)Nc1cccc(C)c1,-9.8,-15.3
Cc1nccn1CCC1CCN(c2nccc(CCC(F)(F)F)n2)CC1,-0.4,16.7
CCOC(=O)c1cc(Cc2ccccc2)sc1NC(=O)c1cc(C)oc1C,14.4,5.0
Cc1ccc2cccc(OCCNC(=O)c3cn[nH]n3)c2n1,0.6,-0.1
CCc1cc2c(CN3CCc4sccc4C3)cc(=O)oc2cc1O,4.5,2.5
CCC(CC)=NNC(=O)CN(Cc1ccccc1)S(=O)(=O)c1ccccc1,-1.5,-4.1
Cc1cccc(C2CCCN2C(=O)Cc2coc(-c3ccccc3)n2)c1 (stereo not given),-8.5,370.6
Cc1ccc(C2CCCCN2C(=O)NCC(=O)N(C)C)cc1 (stereo not given),9.5,2.8
CCSc1nnc2c(n1)OC(c1ccc3ccccc3c1)Nc1ccccc1-2 (stereo not given),-3.8,-6.3
CC(C)NC(=S)NN=Cc1cccs1,3.2,9.3
Cn1ccnc1CN(Cc1cccc(C(=O)Nc2ccccc2)c1)C1CC1,-1.1,-3.2
Cc1nn(C)c(Cl)c1COC(=O)C(C)Oc1ccccc1C#N (stereo not given),3.3,-0.6
C=CCN(Cc1ccc(F)cc1)C(=O)c1coc(CN2CCOCC2)c1,0.4,-18.1
CCN(Cc1ccoc1)Cc1nc(COC)no1,9.7,7.5
Cc1ccnc(Nc2ccc(N3CCN(C(=O)Nc4ccc5c(c4)OCCO5)CC3)nn2)c1,4.1,2.5
CCCCn1c(=O)c2oc3ccccc3c2n(CC(=O)Nc2ccc(OC)cc2)c1=O,8.3,7.3
CCCOC(=O)C1=C(C)NC2=C(C(=O)CCC2)C1c1ccc(O)c(OC)c1 (stereo not given),5.0,-0.5
O=C(NNc1nc(-c2ccccc2)c2cc(Br)ccc2n1)c1ccccc1Br,-7.6,-11.5
COc1cccc(-c2nc(OCC(C)C)nn2-c2ccc(NC(=O)c3ccccc3F)cc2)c1,11.6,17.2
CCc1nnc(SC(CC)C(=O)NCc2ccco2)c2cc3occc3n12 (stereo not given),2.3,-1.8
CCOC(=O)N1CCN(CC(=O)N2N=C(c3ccc(C)c(C)c3)CC2c2ccccc2Cl)CC1 (stereo not given),20.8,14.5

# Part of the list above, as labelled records.
smiles: C=CCN(Cc1ccc(F)cc1)C(=O)c1coc(CN2CCOCC2)c1
  NPYLR7 agonist: 0.4
  NPYLR7 agonist max-min: -18.1

smiles: CCN(Cc1ccoc1)Cc1nc(COC)no1
  NPYLR7 agonist: 9.7
  NPYLR7 agonist max-min: 7.5

smiles: Cc1ccnc(Nc2ccc(N3CCN(C(=O)Nc4ccc5c(c4)OCCO5)CC3)nn2)c1
  NPYLR7 agonist: 4.1
  NPYLR7 agonist max-min: 2.5

smiles: CCCCn1c(=O)c2oc3ccccc3c2n(CC(=O)Nc2ccc(OC)cc2)c1=O
  NPYLR7 agonist: 8.3
  NPYLR7 agonist max-min: 7.3
